# PrP UTR inh – inhibition of PrP 5' UTR reporter expression; AID 488862, 2010; inhibition, % (no concentration beside the values); 340,000 compounds, 0.35% hits; cell-based PrP 5' UTR mRNA reporter, plate reader;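 active = every replicate at 50% or more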;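 also: 0 = median of the neutral control wells; tested in H4 reporter cells; numbers are from one replicate; inactives centre near -14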
# ugtP null kill – growth inhibition of ugtP-null S. aureus, primary screen, RN4220 ugtP deletion, OD600; growth inhibition, % (concentration not given with the values); 330,000 compounds, 0.54% hits; 16 h; some inactives read as strong as hits;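 active = z-score under -3 and OD600 up to 0.15 on both plates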;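 also: plate controls were untreated wells for no effect and antibiotic for full effect; wells of about 80 µL received 100 nL stock; the first replicate is given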
# Autofluor counter – compound fluorescence in toxin protease inhibitor counterscreen | compound autofluorescence counterscreen, microsphere flow cytometry; active compounds read high | fluorescence intensity (concentration not given with the values) | 360,000 compounds, 3.1% hits;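 active = at least 3 SD above the mean of all compounds, about 16000 in these data; inconclusive = too few beads counted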;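 also: 100 nL of 1 mM stock went into each well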
# Mtb hypoxia inh – PubChem AID 1159583; M. tuberculosis hypoxia-regulated fluorescent reporter, fluorescence; fluorescence inhibition, % (concentration not given with the values); 300,000 compounds, 0.1% hits;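 active = 35 to 45% if threefold the growth effect, above 45% if 1.5-fold the growth effect; inactive = the rest, general growth blockers included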;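 also: wells of about 50 µL received 100 nL stock; 0% = vehicle wells and 100% = reference inhibitor wells; whole bacteria with a GFP reporter of the hypoxia response; strong numbers were not always called active; many hits fall short of the cut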
# Sa RN4220 lethal – growth inhibition of S. aureus RN4220, primary screen, OD600; 16 h; inhibition, % (no concentration beside the values); 330,000 compounds, 0.33% hits;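 active = z-score of -3 or lower and OD600 up to 0.18 on both plates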;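 also: plate controls were untreated cells for no effect and reference antibiotic for full effect; stock transfer was 100 nL into about 80 µL; one replicate is shown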
# BJeLR viability – MLPCN primary cell-based screen for lethality selective to Ras in HRASV12 cells. inhibition, % (test concentration not listed). BJeLR (HRASV12) viability, CellTiter-Glo ATP luminescence, 48 h; reference of the scale not given here. 300,000 compounds, 0.17% hits;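 active = replicate mean above 50%; inconclusive = above 50% but judged a plate artefact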;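 also: 50 nL library stock added to about 25 µL; numbers are from one replicate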
# Mtb hypoxia inh growth – second read-out of Mtb hypoxia inh, no call of its own (marks repeat the call); growth inhibition, %; measured here: M. tuberculosis growth (absorbance);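 0% = vehicle and 100% = reference antibiotic; read after six days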
# Numbers without * were called inactive; ? = inconclusive; / = not tested or not shown.
SMILES,PrP UTR inh,ugtP null kill,Autofluor counter,Mtb hypoxia inh,Mtb hypoxia inh growth,Sa RN4220 lethal,BJeLR viability
Cc1ccc(N2CC(C(=O)Nc3nnc(SCc4cccnc4)s3)CC2=O)cc1 (configuration not stated),-15,5,4311,-1,6,-1.5,-4
O=C(Nc1ccc(Cl)c(Cl)c1)O/N=C/c1ccncc1,-30,/,2440,/,/,/,4
CCc1ccccc1NC(=O)C1C(c2ccccc2)C1(Cl)Cl (configuration not stated),-27,-4,3242,-3,-3,-1.6,-11
CC(C)=CCC/C(C)=C/CC/C(C)=N/O,-29,/,5408,/,/,/,-6
COc1ccc(NC(=O)CCC(=O)OCc2ccc(Br)cc2)cc1,4,1,2515,9,0,-0.4,-10
Cc1ccc(C(=O)N2CCN(c3ccc(NC(=O)c4cc(C)cc(C)c4)cc3)CC2)cc1,-7,4,5415,11,4,0.7,9
O=C(/C=C/c1ccc(Br)cc1)NC(=S)N1CCOCC1,-45,15,2512,5,-7,5.8,-5
Cc1nc(SCC(=O)NCCc2ccccc2)n[nH]1,4,8,4725,19,11,4.3,2
Cc1ccccc1NC(=O)C1Cc2ccccc2C(=O)O1 (configuration not stated),-4,1,9107,16,11,2.6,-8
CC1(C)CC(NC(=O)C2CCCCC2)CC(C)(C)N1,-10,4,3012,10,-3,-1.3,-1
CCN(CC)c1ccc(-n2cc3c(=O)n(C)c(=O)n(C)c3c2)cc1,-68,-6,3365,/,/,4.7,-4
Cc1onc(-c2ccccc2)c1C(=O)N1CCC(CO)(Cc2ccccc2)CC1,-14,-3,4260,-11,11,0.4,-3
O=C(NCc1ccncc1)C(=O)NCC1OCCCN1S(=O)(=O)c1cc(F)ccc1F (configuration not stated),-12,4,6345,15,2,4.4,-13
CC(=O)Nc1ccc(S(=O)(=O)NCCN2CCOCC2)cc1,-22,1,10990,10,3,3.0,-5
CN(C)C(CNc1ccc(C(N)=O)cc1[N+](=O)[O-])c1ccccc1 (configuration not stated),-16,7,4326,5,3,6.0,1
CCc1c(C#N)sc(C(N)=O)c1CC,0,2,3291,-1,0,0.5,-1
CC(C)CC(NC(=O)c1ccccc1)C(=O)OCC(=O)Nc1ccc(S(N)(=O)=O)cc1 (configuration not stated),-11,11,2667,11,10,4.2,-15
CN1C(=O)c2ccc(S(=O)(=O)c3ccc(C(=O)O)cc3)cc2C1=O,-26,2,11084,7,1,1.2,-6
S=C(NCc1ccccc1)N1CCN(c2ccccc2)CC1,-18,3,3132,3,4,-1.2,0
CCN(C(=O)COC(=O)c1ccc(Cl)nc1)C1CCS(=O)(=O)C1 (configuration not stated),-14,1,3265,9,5,5.6,-3
COc1ccc(-n2c(SCC(N)=O)nc3sc4c(c3c2=O)CCN(C)C4)cc1,-7,-8,/,-2,7,-9.6,6
COc1cc([N+](=O)[O-])ccc1NC(=S)N1CCN(c2ccccn2)CC1,61*,10,3050,11,12,0.9,-1
N#CCCn1cc(C=NNC(N)=S)c(-c2ccc(Br)cc2)n1,/,3,/,8,-6,6.5,/
Cc1ccccc1-c1ocnc1C(=O)Nc1ccccc1NC(=O)c1ccccn1,2,2,5095,3,1,2.2,-14
COc1cc(/C=C/C(=O)OCC(=O)NCc2ccco2)ccc1OC(F)F,-25,7,?,17,4,-0.4,5

# 5 structures already listed, ordered by heavy-atom count, smallest number first.
SMILES,PrP UTR inh,ugtP null kill,Autofluor counter,Mtb hypoxia inh,Mtb hypoxia inh growth,Sa RN4220 lethal,BJeLR viability
CCc1c(C#N)sc(C(N)=O)c1CC,0,2,3291,-1,0,0.5,-1
CC(C)=CCC/C(C)=C/CC/C(C)=N/O,-29,/,5408,/,/,/,-6
COc1ccc(NC(=O)CCC(=O)OCc2ccc(Br)cc2)cc1,4,1,2515,9,0,-0.4,-10
Cc1ccc(N2CC(C(=O)Nc3nnc(SCc4cccnc4)s3)CC2=O)cc1 (configuration not stated),-15,5,4311,-1,6,-1.5,-4
Cc1ccccc1-c1ocnc1C(=O)Nc1ccccc1NC(=O)c1ccccn1,2,2,5095,3,1,2.2,-14

# More records.
SMILES,PrP UTR inh,ugtP null kill,Autofluor counter,Mtb hypoxia inh,Mtb hypoxia inh growth,Sa RN4220 lethal,BJeLR viability
Cc1cc2c(c(C)c1Br)C(c1ccc3c(c1)OCO3)CC(=O)O2 (configuration not stated),-6,21,4267,-9,6,-5.8,/
O=C1CN=C(c2ccccc2Cl)c2cc(Br)ccc2N1,-9,-4,5791,16,10,3.9,-2
COc1ccc(OC)c(NC(=O)Cn2cc(C#N)c3cc(Br)ccc32)c1,-21,-31,10542,-2,-2,-13,-2
Clc1cccc(Cl)c1CNC1CCCC1,-20,0,5627,9,4,2.6,3
CCc1cccc(NC(=O)CC2SC(N3CCCC3)=NC2=O)c1 (configuration not stated),-4,2,6233,-5,3,2.6,/
O=[N+]([O-])c1cccc(C2NCC(c3ccccc3Cl)c3c2[nH]c2ccccc32)c1 (configuration not stated),-17,73,3317,6,8,5.5,-4
C=CCOc1nc2c(c(=O)n(C)c(=O)n2C)n1C,-20,2,10249,17,6,3.7,-7
Cc1cccc2cc(CN(CC3CCCO3)C(=O)NC3CCCCC3)c(=O)[nH]c12 (configuration not stated),-21,0,5393,5,8,-1.4,-5
COc1ccc(C2=NOC(Cn3nc(-c4ccccc4)cc3C(=O)NCc3ccc(C)cc3)C2)cc1 (configuration not stated),-19,4,3658,4,7,5.8,/
CCOC(=O)CC(=O)Nc1c(C)cc(C)cc1C,-18,12,14840,5,1,5.8,-2
C/C(N)=C(/C#N)C(=O)COC(=O)c1cc(S(=O)(=O)N2CCCCC2)ccc1C,-11,-7,8984,-7,0,-0.5,-4
Cc1nc(Nc2ccc3c(c2)OCCO3)c2c(C)c(C)sc2n1,-33,5,3046,11,4,5.7,-1
Cc1nn(CC#N)c(=O)n1N(C)c1ncc(C(F)(F)F)cc1Cl,-4,4,4058,8,9,9.5,-2
COc1ccc(CCN2C(=O)C3C4CCC(C4=C(C)C)C3C2=O)cc1OC (configuration not stated),-13,2,2349,6,8,10.0,-7
O=C(CCc1ccccc1)NCC(c1ccco1)N1CCc2ccccc21 (configuration not stated),-25,22,5826,7,-2,0.8,-1
CCC1CC(CSc2ncn[nH]2)OC1=O (configuration not stated),-23,5,3491,16,8,2.0,2
O=C(Nc1nnc(C2CCCO2)s1)c1cccs1 (configuration not stated),-5,0,10968,-4,2,3.3,9
CCN(CC)c1ccc(C(=O)Nc2ccccc2)cc1[N+](=O)[O-],-42,2,4593,9,-6,-0.1,8
CC1CCCN(CCCNC(=O)c2ccc(CS(=O)(=O)Cc3cccc(Cl)c3)o2)C1 (configuration not stated),-23,11,6346,7,-4,1.9,0
O=C(Cn1nnc(-c2ccccc2NC(=O)c2ccccc2F)n1)NCc1ccco1,-6,-1,4637,/,/,0.2,2
Cc1ccc(CSc2nnc(-c3cccc4ccccc34)o2)cc1,1,48,3440,11,9,-3.6,/
Cc1ccc2nc(N3CCCCC3)c(C=O)c(=O)n2c1,/,3,/,16,1,-0.1,-8
Cc1ccccc1COC(=O)CN1C(=O)NC2(CCCC2)C1=O,-17,-1,5273,8,0,5.2,-9
O=C(COc1cccc2cccnc12)NCC(F)(F)F,-9,-1,4714,/,/,0.8,-1
CCOC(=O)c1ccc2[nH]c3c(c2c1)CCCC3O (configuration not stated),-9,7,3923,10,13,3.3,1

# Part of the list above with just BJeLR viability, Mtb hypoxia inh and Autofluor counter:
structure | BJeLR viability | Mtb hypoxia inh | Autofluor counter
N#CCCn1cc(C=NNC(N)=S)c(-c2ccc(Br)cc2)n1 | / | 8 | /
Cc1ccccc1COC(=O)CN1C(=O)NC2(CCCC2)C1=O | -9 | 8 | 5273

# Following part
SMILES,PrP UTR inh,ugtP null kill,Autofluor counter,Mtb hypoxia inh,Mtb hypoxia inh growth,Sa RN4220 lethal,BJeLR viability
CCOP(=O)(OCC)C(c1ccccc1)N(C)C=O (configuration not stated),-12,-2,11069,-1,7,0.8,2
O=C(CCCc1ccccc1)N=C1SC2CS(=O)(=O)CC2N1c1ccccc1F (configuration not stated),-5,-2,5980,6,7,2.4,-8
Cc1cccc(N(C(=O)CCC(=O)Nc2ccccn2)C(C(=O)NC(C)C)c2ccc(O)cc2)c1 (configuration not stated),-22,-4,4063,/,/,-0.7,/
O=C(Cn1[nH]c(=O)c2ccccc2c1=O)N1CC=C(c2ccccc2)CC1,-6,-3,3960,/,/,3.2,7
CN(C)S(=O)(=O)c1ccc(NC(=O)C2CC(=O)N(Cc3ccccc3)C2)cc1 (configuration not stated),-46,-6,4279,-1,9,0.9,2
CC(C)(C)C(=O)CSc1nc2c(c(-c3cccs3)c1C#N)CCC2,-5,19,2184,7,2,7.1,8
OCCn1c(Cl)nc2ccccc21,-22,5,3996,/,/,1.3,5
Cc1ccc(CN2CCN(Cc3ccc(OCCO)cc3)CC2CCO)o1 (configuration not stated),-11,4,4954,10,5,1.7,9
COC(=O)c1c(C)nc2ccccc2c1C(=O)O,-30,10,2245,/,/,-1.2,2
Cc1cc2oc(=O)cc(CN3CCC(C)CC3)c2cc1C,-27,3,5696,1,5,0.1,-3
CN1CCN(c2ccc(Cl)cc2NC(=O)c2ccc([N+](=O)[O-])cc2)CC1,-6,-7,3320,-9,2,-9.2,6
COc1ccccc1COCC(O)CN(Cc1ccco1)Cc1ccccc1O (configuration not stated),-11,12,9507,1,6,8.4,-4
COc1ccc2c(CC(=O)N[C@@H](Cc3ccccc3)C(=O)O)cc(=O)oc2c1C,1,3,3735,0,10,0.7,7
COc1ccc(S(=O)(=O)N2CCCC2CNC(=O)C(=O)Nc2cccc(F)c2)cc1 (configuration not stated),-12,/,?,/,/,/,17
Cc1cc(C(=O)NC(C)C2CCCO2)cs1 (configuration not stated),2,1,16328*,10,14,6.1,12
Nc1nonc1-n1nnc(C(=O)N/N=C/c2c(Cl)cccc2Cl)c1CSC1=NCCS1,-11,/,4380,/,/,/,-6
Cc1ccnc(NC(=O)Nc2ccc(Br)cc2Cl)c1,-47,3,2679,12,7,4.5,6
Cc1ccc(NC(=O)NCC2CCN(Cc3cc(C)ccc3Cl)CC2)c(C)c1,-4,3,3563,-5,1,6.2,2
Cc1ccc(C(=O)NCC(=O)NCC(c2cccs2)N(C)C)cc1C (configuration not stated),1,9,?,1,1,5.2,/
O=C(O)CN1CCN(Cc2ccccc2F)C1=O,-17,9,4668,11,7,4.6,5
O=c1c2ccccc2nc(SCc2ccc([N+](=O)[O-])cc2)n1-c1ccc(Cl)cc1,-13,9,2543,-5,2,6.2,0
Cc1ccc(C)c(NS(=O)(=O)c2ccc(OCC(=O)NCc3ccco3)cc2)c1,-19,2,3131,10,13,1.6,1
COc1ccc(N=c2cc(-c3ccc(OC)cc3)oc3ccccc23)cc1,-19,/,2195,/,/,/,-11

# Compound activity as filed in PubChem.
